From PubChem BioAssay
Autofluor counter: compound fluorescence in toxin protease inhibitor counterscreen. compound autofluorescence counterscreen, microsphere flow cytometry; hits give high values. fluorescence intensity (no concentration beside the values). hit rate 3.1% among 360,000. AID 624483;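 active = at least 3 SD above the mean of all compounds, about 16000 in these data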;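 note: 100 nL of 1 mM stock went into each well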
Mtb hypoxia inh: Mtb hypoxia fluorescent reporter inhibition. M. tuberculosis hypoxia-regulated fluorescent reporter, fluorescence. fluorescence inhibition, % (concentration not given with the values). hit rate 0.1% among 300,000;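 active = 35 to 45% if threefold the growth effect, above 45% if 1.5-fold the growth effect; inactive = the rest, general growth blockers included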;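 note: wells of about 50 µL received 100 nL stock; 0% = vehicle wells and 100% = reference inhibitor wells; whole bacteria with a GFP reporter of the hypoxia response; strong numbers were not always called active; many hits fall short of the cut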
ugtP null kill: compounds lethal to S. aureus RN4220 ugtP deletion mutant; hit rate 0.54% among 330,000; growth inhibition, % (test concentration not listed); OD600 growth, 16 h; some inactives read as strong as hits;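 active = z-score under -3 and OD600 up to 0.15 on both plates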;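 note: plate controls were untreated wells for no effect and antibiotic for full effect; wells of about 80 µL received 100 nL stock; the first replicate is given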
PrP UTR inh: inhibition of PrP 5' UTR reporter expression; cell-based PrP 5' UTR mRNA reporter, plate reader; inhibition, % (concentration not given with the values); hit rate 0.35% among 340,000;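 active = every replicate at 50% or more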;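 note: 0 = median of the neutral control wells; tested in H4 reporter cells; numbers are from one replicate; inactives centre near -14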
RN4220 kill: kills Staphylococcus aureus RN4220; S. aureus RN4220 growth, OD600, 16 h; inhibition, % (concentration not given with the values); hit rate 0.33% among 330,000; AID 1259311;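 active = z-score of -3 or lower and OD600 up to 0.18 on both plates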;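 note: plate controls were untreated cells for no effect and reference antibiotic for full effect; stock transfer was 100 nL into about 80 µL; one replicate is shown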
BJeLR viability: BJeLR cell viability loss; AID 1554; inhibition, % (no concentration beside the values); hit rate 0.17% among 300,000; BJeLR (HRASV12) viability, CellTiter-Glo ATP luminescence, 48 h; reference of the scale not given here;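 active = replicate mean above 50%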;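 note: 50 nL library stock added to about 25 µL; numbers are from one replicate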
Mtb hypoxia inh growth: recorded beside Mtb hypoxia inh, whose call it bears; growth inhibition, %; measured here: M. tuberculosis growth (absorbance);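 0% = vehicle and 100% = reference antibiotic; read after six days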
The depositor's hits bear a star; · = not tested or not shown.

SMILES	Autofluor counter	Mtb hypoxia inh	Mtb hypoxia inh growth	ugtP null kill	PrP UTR inh	RN4220 kill	BJeLR viability
CC1CCN(c2c([N+](=O)[O-])nn(-c3ccc4c(c3)OCCO4)[n+]2[O-])CC1	9355	-3	2	0	-21	-0.9	-8
COc1cccc(C(=O)N(C)Cc2c(C)nn(C3CCS(=O)(=O)C3)c2C)c1 (stereo unspecified)	2858	4	3	3	2	4.8	·
CCC1Nc2ncnc(N3CCOCC3)c2N(Cc2ccc(Cl)cc2)C1=O (stereo unspecified)	2821	1	9	-18	-17	3.7	·
COC(=O)c1ccccc1S(=O)(=O)N1CCCC(c2nc3c(nnn3Cc3ccc(C)cc3)c(=O)[nH]2)C1 (stereo unspecified)	3686	4	-12	4	-19	4.8	-11
CCCCCCN1Cc2ccccc2C1	4098	·	·	3	-16	-1.3	4
O=C(NCc1n[nH]c(=S)n1-c1ccc(Cl)c(Cl)c1)c1ccc(S(=O)(=O)N2CCCCC2)cc1	4057	-3	-3	11	-15	0.3	-10
O=S(=O)(c1ccc(Cl)cc1)N1CCn2c1nc1ccccc12	7221	5	8	2	-38	-0.8	-10
COC(=O)c1ncccc1SC	2577	11	5	-1	-7	3.8	-6
COc1cc(C(C)=O)ccc1Oc1ccc(S(=O)(=O)N2CCOCC2)cn1	3667	-2	-8	2	-18	-2.2	·
CCc1cc2c(=O)c(-n3cnc4ccccc43)coc2cc1O	3205	9	-1	8	-21	10	-10

A run of entries from further up, as a working copy:
SMILES	Autofluor counter	Mtb hypoxia inh	Mtb hypoxia inh growth	ugtP null kill	PrP UTR inh	RN4220 kill	BJeLR viability
COC(=O)c1ncccc1SC	2577	11	5	-1	-7	3.8	-6
COc1cc(C(C)=O)ccc1Oc1ccc(S(=O)(=O)N2CCOCC2)cn1	3667	-2	-8	2	-18	-2.2	·
CCc1cc2c(=O)c(-n3cnc4ccccc43)coc2cc1O	3205	9	-1	8	-21	10	-10

Later entries:
SMILES	Autofluor counter	Mtb hypoxia inh	Mtb hypoxia inh growth	ugtP null kill	PrP UTR inh	RN4220 kill	BJeLR viability
Cc1nc2cc(C(F)(F)F)ccc2n1C1CCN(Cc2nnnn2CCc2ccccc2)CC1	4265	3	3	-20	-16	-22	-7
Cc1nc(N2CCN(S(=O)(=O)c3ccc(Br)cc3)CC2)c2c(C)c(C)sc2n1	3363	8	-5	-76	4	11	2
Cn1cccc1/C=N/NC(=O)CSc1nc2ccccc2n1C	4669	·	·	·	-11	·	-7
CCCN(CCC)C(=O)Cn1c(=O)n(CCCC(=O)NCc2ccco2)c(=O)c2sccc21	4492	11	8	1	-18	5.5	1
COCc1c(C(=O)NN=C(C)c2ccccc2)nnn1-c1nonc1N	·	-6	-1	0	·	2.0	·
CCOC(CNC(=O)c1ccc2c(c1)ncn2-c1ccc(F)c(F)c1)OCC	2513	0	1	8	-9	-1.5	2
Cc1ccc2c(c1)C(c1ccc(N3CCOCC3)cc1)=NNC(c1cccs1)=N2	20609*	3	11	-11	-46	8.8	3
Cc1cc(OCC(=O)NCCO)ccc1Cl	7102	14	11	6	-16	5.4	-12
O=C1N=c2ccccc2=C1c1sc(=S)n(NC(=O)c2cccc(O)c2)c1O	4228	2	1	-3	48	10	4
O=C(CN1CCOC1=O)N1CCCC(N2CCN(c3cccc(C(F)(F)F)c3)CC2)C1 (stereo unspecified)	5124	-7	-6	2	-33	1.4	-3

Exported comma-delimited: entries from further up
SMILES,Autofluor counter,Mtb hypoxia inh,Mtb hypoxia inh growth,ugtP null kill,PrP UTR inh,RN4220 kill,BJeLR viability
Cc1nc(N2CCN(S(=O)(=O)c3ccc(Br)cc3)CC2)c2c(C)c(C)sc2n1,3363,8,-5,-76,4,11,2
Cn1cccc1/C=N/NC(=O)CSc1nc2ccccc2n1C,4669,·,·,·,-11,·,-7

Carrying on:
SMILES	Autofluor counter	Mtb hypoxia inh	Mtb hypoxia inh growth	ugtP null kill	PrP UTR inh	RN4220 kill	BJeLR viability
COc1ccc(NC(=O)N2CCN(c3ccc([N+](=O)[O-])cc3)CC2)cc1	2294	1	0	16	-4	6.3	7
O=C(c1ccccn1)N1N=C2/C(=C/c3ccccc3)CCCC2C1c1ccccc1 (stereo unspecified)	2551	-3	2	1	-4	2.1	-4
CC1CC(C)CN(C(=S)Nc2ccc(SC(F)F)cc2)C1 (stereo unspecified)	2476	·	·	·	13	·	3
Cc1cccc(S(=O)(=O)Nc2nc3ccccc3nc2NCc2ccc3c(c2)OCO3)c1	2002	5	4	0	-23	3.3	-16
CC(=O)c1c(C)[nH]c(C(=O)NCc2ccccn2)c1C	4574	17	9	12	-31	2.9	5
COc1ccc2cc(CN(CCCN3CCOCC3)Cc3nnnn3C3CCCC3)c(=O)[nH]c2c1	8495	-5	-2	2	-4	4.2	0
CSCCC(NC(=O)c1ccccc1)C(=O)N1CCN(C(=O)c2ccccc2)CC1 (stereo unspecified)	3891	4	0	1	-13	1.6	·
CCN(CC)C(=O)C1CCN(S(=O)(=O)c2ccc(C3CNC(=O)C3)cc2)CC1 (stereo unspecified)	5306	·	·	-6	-16	3.2	-3
CCN(C(=O)COC(=O)c1cccnc1)c1cccc2ccccc12	4711	8	1	3	-6	2.6	·
O=C(c1ccc(F)cc1)N1CCCC(N2CCN(Cc3ccc4c(c3)OCO4)CC2)C1 (stereo unspecified)	4442	5	-6	11	8	3.2	-5
Cc1ccc(CNC(=O)c2coc(=O)c3ccccc23)o1	4127	6	17	-4	0	3.0	9
Cc1[nH]c2ccccc2c1CN1CCN(c2ccccn2)CC1	·	-6	1	-9	-6	-6.3	1
Cc1c(N=C2N=C(NC(=O)c3ccc(F)cc3)c3ccccc32)c(=O)n(-c2ccccc2)n1C	5549	2	3	18	2	3.8	1
O=C(NN=C1C(=O)c2cccc3cccc1c23)c1ccc(Cl)cc1	·	3	14	92*	·	97*	·
CCN(C(=O)COC(=O)c1ccc(=O)n(Cc2ccccc2)n1)C1CCCCC1	8584	1	9	-3	1	1.1	·
CCN(C(=O)c1cc(S(=O)(=O)N2CCOCC2)cn1C)c1cccc(C)c1	5028	3	8	-3	-17	-5.4	-11
C=CCn1c(SCC(=O)c2ccc(OC)cc2)nnc1-c1cc2cccc(OC)c2o1	2075	·	·	-12	3	-0.8	4
COc1ccc(NC(=O)Nc2cccc(Cl)c2Cl)c(OC)n1	4373	12	5	27	-11	4.8	9
CCOC(=O)C1CCN(Cc2cc(=O)oc3cc(C)ccc23)CC1	3849	1	-5	2	-29	2.8	-2
Cc1c(C(=O)NCCSCc2ccco2)cccc1[N+](=O)[O-]	2596	10	6	0	-16	3.4	3
O=C(NCC1COc2ccccc2O1)c1cc(S(=O)(=O)N2CCOCC2)ccc1F (stereo unspecified)	·	3	16	3	-18	1.2	·
COc1ccc2c(n1)Sc1nc3ccccc3nc1N2	4878	-3	6	8	-76	0.1	0
COc1cc(C(=O)NCCN2CCOCC2)cc(OC)c1OC	8095	8	-2	9	-15	3.4	2
CC(C)Oc1ccc(S(=O)(=O)N2CCCCC2)cc1NC(=O)CN1CCCC1c1cccs1 (stereo unspecified)	9519	-7	4	-12	0	-3.4	·
CCCc1cc(=O)[nH]c(SCC(N)=O)n1	2684	·	·	6	-30	2.2	·
CCc1ccc(NC(=O)C2C3C=CC(C4CC34)C2C(=O)O)cc1 (stereo unspecified)	4582	·	·	9	-27	-0.2	-10
CCN(CC)S(=O)(=O)c1cccc(C(=O)OCC(=O)N2CC(=O)Nc3ccccc32)c1	3480	16	7	11	-18	4.1	-1
COc1ccc(NS(=O)(=O)c2cc(NC(=O)c3ccco3)ccc2N2CCCC2)cc1	2462	4	-2	-9	-12	4.2	10
CC(=O)Nc1ccc(S(=O)(=O)NCCC(=O)N2CCC(Cc3ccccc3)CC2)cc1	3166	7	5	-4	0	0.6	·
Cc1cccc2cc(C#N)c(NCCNC(=O)NC3CCCCC3)nc12	9694	12	6	9	-23	3.6	-3

A draw from above in order of SMILES length, high to low.
SMILES	Autofluor counter	Mtb hypoxia inh	Mtb hypoxia inh growth	ugtP null kill	PrP UTR inh	RN4220 kill	BJeLR viability
COc1ccc(NC(=O)N2CCN(c3ccc([N+](=O)[O-])cc3)CC2)cc1	2294	1	0	16	-4	6.3	7
O=C(NN=C1C(=O)c2cccc3cccc1c23)c1ccc(Cl)cc1	·	3	14	92*	·	97*	·
COCc1c(C(=O)NN=C(C)c2ccccc2)nnn1-c1nonc1N	·	-6	-1	0	·	2.0	·
COc1cc(C(=O)NCCN2CCOCC2)cc(OC)c1OC	8095	8	-2	9	-15	3.4	2
COC(=O)c1ncccc1SC	2577	11	5	-1	-7	3.8	-6

More results
SMILES	Autofluor counter	Mtb hypoxia inh	Mtb hypoxia inh growth	ugtP null kill	PrP UTR inh	RN4220 kill	BJeLR viability
CC(=O)N1CCc2cc(S(=O)(=O)NC(CC(C)C)C(=O)N3CCCC3)ccc21 (stereo unspecified)	5991	5	5	18	-13	6.6	15
Cc1ccc(S(=O)(=O)N2CCN(C(=O)C3CCCC3)CC2)cc1C	3143	7	6	8	-3	1.5	1
CCN(CC)C(=O)CSc1nc2ccccc2c(=O)n1CCC(=O)N1CCN(c2ccccc2)CC1	3925	10	-5	-68	56*	13	4
COc1ccccc1N(CC(O)CN1C(C)CCCC1C)S(=O)(=O)c1ccccc1 (stereo unspecified)	5269	0	0	7	-30	0.2	-15
COc1ccc(-n2nnnc2SCC(=O)Nc2nnc(C)s2)cc1	4550	-11	-2	-1	-8	0.7	-8
CN(C)S(=O)(=O)N(CC(=O)N1CCOCC1)c1ccccc1	9244	4	0	6	-10	4.5	-6
O=C(/C=C/c1cc(Br)ccc1O)c1ccco1	6067	18	2	92*	-16	91*	-4
COc1cccc(C(=O)NCCCNC(=O)c2ccccn2)c1	3568	9	14	3	-20	1.3	2
CC(=O)c1ccc(N/N=C(/C(N)=O)C2=NC(C)(C)Cc3ccccc32)cc1	9116	·	·	·	-8	·	24
Cc1ccc(C(=O)COC(=O)CNS(=O)(=O)c2ccc(C)cc2)cc1	5648	1	5	1	-10	0.1	-3
COc1ccc(C2=Nn3c(nnc3-c3ccccc3Cl)SC2)cc1OC1CCCC1	2828	5	6	-17	-9	-6.8	·
COc1cccc(NC(=O)CSCc2n[nH]c(=O)[nH]2)c1	7924	7	1	-3	-22	0.3	2
Cc1cccc(CN2CCC(CNC(=O)CCNC(=O)Cn3ccc4ccccc4c3=O)CC2)c1	4572	5	1	4	-13	3.3	-5
COc1cccc(C2=CC(c3ccc(OC)c(OC)c3OC)n3nnnc3N2)c1 (stereo unspecified)	3295	7	0	3	-33	5.2	-5
O=C(C1=C(O)C(=O)N(Cc2ccco2)C1c1cccc(O)c1)c1ccco1 (stereo unspecified)	5365	10	13	4	-34	1.3	-6
Cc1ccc2nc(Cl)c(C3CC(c4cccs4)=NN3C(=O)CCCC(=O)O)cc2c1 (stereo unspecified)	2561	·	·	·	-33	·	9
S=c1[nH]nc(COc2ccc(Cl)cc2)n1-c1ccccc1	3616	-2	-1	13	-22	4.4	-2
COC(=O)CC1c2cc(F)ccc2S(=O)(=O)N1C(C)C (stereo unspecified)	·	16	14	1	·	9.5	·
CCC(C)NC(=O)CS(=O)Cc1nc(-c2ccccc2C)oc1C (stereo unspecified)	6015	9	9	-1	-17	-14	-8
O=C(O)c1ccccc1-c1ccccc1C(=O)Nc1cccc(-c2nc3ccccc3o2)c1	4718	16	27	9	-9	4.8	9
COC(=O)CSc1c(-c2ccccc2)c2cc(Cl)ccc2[nH]c1=O	9406	14	3	-24	-16	1.3	3
COCCCNc1nc2c(c(=O)[nH]c(=O)n2C)n1CCCc1ccccc1	4175	·	·	3	-7	2.1	-4
Cc1ccccc1OCc1nnc(SCC(=O)Nc2ccc3nc(SCC(=O)Nc4ccccc4)sc3c2)n1C	2085	15	-1	-18	-29	3.5	5
COc1ccc(N2C(=O)C(F)(F)C2c2cccc(F)c2)cc1 (stereo unspecified)	3388	6	16	7	-23	3.2	6

The order is random, and some 4.1% of all compounds hit somewhere here.
